# Screens from PubChem.
# Rango release inh – qHTS Assay for Inhibitors of RanGTP induced Rango (Ran-regulated importin-beta cargo) - Importin beta complex dissociation. Snurportin-1 (Homo sapiens) + GTP-binding nuclear protein Ran (Homo sapiens) + Importin …. Potency, µM (doses to about 46.1 µM), without a hit: top-dose activity change, negative = inhibition. AID 540253, 2011. 340,000 tested, 0.071% active. Biochemical FRET Rango-importin beta, RanGTP-induced dissociation; active means falling FRET ratio curve, often poorly fitted, with flat reads before Ran was added; inconclusive means other falling curves, or compound fluorescence or quenching; inactive means flat or rising ratio curve;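 also: potency is read from the fitted curve at half-maximal effect; % of control where 0% means no effect; nearly all actives have a fitted effect of over 45% in size; -100% = wells without RanGTP and RCC1; the record marks most hits as doubtful in a second field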
#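 Rango FRET biosensor (snurportin-1 IBB flanked by N-terminal EYFP and C-terminal CFP10) at 0.1 uM, with 0.25 uM importin beta in PBS, 1mM DTT, 0.02% Tween-20, 0.1% BSA. 0.6 uM Ran, 2mM GTP and 0.2 uM RCC1 were then added for 45 min at room temperature. Inhibition read as loss of FRET rise.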
# GLA inh pH 4.5 – qHTS Assay for Inhibitors of Human alpha-Galactosidase at pH 4.5. Alpha-galactosidase A (Homo sapiens), P06280. purified enzyme, 4-MU-alpha-Gal fluorescence, pH 4.5. activity change, negative = inhibition, % at 105 µM. 230,000 tested, under 10 active; inconclusive = small, poorly fitted or top-dose-only inhibition, or a rising curve; inactive = flat fitted curve, though single readings scatter; no compound was filed as active;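 also: 0% = full activity with enzyme and -100% = basal without enzyme; dose as in the result columns while the protocol names 77 µM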
# Rango complex inh – qHTS Assay for Inhibitors of Rango (Ran-regulated importin-beta cargo) - Importin beta complex formation. Importin subunit beta-1 (Homo sapiens), Q14974. Rango CFP/YFP FRET sensor + importin beta, 45 min. Potency, µM (titrated, usually from 92.2 µM), without a hit: at the top dose inhibition of complex formation. AID 540263, 2011. 340,000 tested, 0.031% active; active = rising FRET ratio curve, often small or poorly fitted; inconclusive = mostly compound fluorescence or quenching in the first reads; inactive = flat curves in all reads;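 also: potency is read from the fitted curve at half-maximal effect; 0% = DMSO wells and 100% = buffer wells lacking importin beta; nearly all actives have a fitted effect of over 15% in size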
# Target sequence (Q14974 whole entry, looked up): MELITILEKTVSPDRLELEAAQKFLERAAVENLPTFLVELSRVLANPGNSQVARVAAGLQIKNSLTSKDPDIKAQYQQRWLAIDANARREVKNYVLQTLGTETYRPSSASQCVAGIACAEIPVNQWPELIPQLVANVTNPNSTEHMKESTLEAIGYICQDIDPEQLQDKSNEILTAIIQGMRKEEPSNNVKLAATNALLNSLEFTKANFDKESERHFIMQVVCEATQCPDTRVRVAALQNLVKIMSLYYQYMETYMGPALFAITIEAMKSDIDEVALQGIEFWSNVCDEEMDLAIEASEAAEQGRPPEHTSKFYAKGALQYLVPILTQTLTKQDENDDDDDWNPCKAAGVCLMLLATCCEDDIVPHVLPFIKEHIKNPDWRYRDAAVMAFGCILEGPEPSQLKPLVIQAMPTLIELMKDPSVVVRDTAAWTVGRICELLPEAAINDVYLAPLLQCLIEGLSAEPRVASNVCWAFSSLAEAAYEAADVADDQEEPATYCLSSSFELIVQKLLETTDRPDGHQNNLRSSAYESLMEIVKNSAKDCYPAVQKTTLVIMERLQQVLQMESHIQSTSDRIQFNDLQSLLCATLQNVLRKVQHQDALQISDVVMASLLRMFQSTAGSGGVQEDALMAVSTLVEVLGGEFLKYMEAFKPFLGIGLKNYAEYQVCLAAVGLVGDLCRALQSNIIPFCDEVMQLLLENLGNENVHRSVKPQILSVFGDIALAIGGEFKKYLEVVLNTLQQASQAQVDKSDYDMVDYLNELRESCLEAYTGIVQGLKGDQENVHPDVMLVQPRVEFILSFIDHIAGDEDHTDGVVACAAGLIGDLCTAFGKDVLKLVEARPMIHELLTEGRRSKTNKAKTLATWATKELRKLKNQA
#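 Inhibition scored from the CFP 486 nm/YFP 530 nm FRET ratio 45 min after adding 0.125 microM importin beta to 50 nM Rango biosensor preincubated 5 min with compound (room temperature, PBS with DTT, Tween-20, BSA). No-importin wells as positive control.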
# miR-21 FLuc – qHTS Assay for Modulators of miRNAs and/orActivators of miR-21; Potency, µM (highest dose often 38.3 µM), for inactives: at the top dose reporter change, positive = more light; HeLa miR-21 FLuc reporter, luciferase, 48 h; 340,000 tested, under 10 active; active = well fitted rising curve with a large enough effect; inconclusive = small, poorly fitted or top-dose-only effect; inactive = no such curve, though single readings can be large or run the other way;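 also: % of control where 0% means no effect; miR-21 action dims this reporter so a rising signal means less miR-21 action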
#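 Luminescence from a firefly luciferase reporter carrying a miR-21 binding site downstream, stably expressed under a CMV promoter in HeLa cells that make miR-21 endogenously, reports miRNA modulation after 48 h compound exposure up to approximately 40uM final.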
# An asterisk follows results filed as active; ? = inconclusive; . = no result given; & = joins results of further samples. This is a subset (hit frequency here may not be typical).
SMILES,Rango release inh,GLA inh pH 4.5,Rango complex inh,miR-21 FLuc
CC(C)=C(NC(=O)c1ccccc1)C(N)=O,3%,-3,0.5%,-2%
O=C(Nc1nnc(-c2cccnc2)o1)c1cccc([N+](=O)[O-])c1,.,-15,.,-4%
CCOC(=O)Cn1nnnc1CN(Cc1cccs1)Cc1cc2cc(C)cc(C)c2[nH]c1=O,-19%,1,?,0%
Cc1ccc(NC(=O)CSc2cccc3cccnc23)c(C)c1,2%,.,-2.2%,-4%
COc1ccccc1C(=O)N/C(=C/c1ccc2c(c1)OCO2)C(=O)Nc1cccc(C(=O)O)c1,4%,.,1.3%,1%
N#CCSc1nc2ccccc2c(=O)n1CCCC(=O)NCC1CCCO1 (configuration not stated),-3%,4,0.2%,1%
Cc1nn(Cc2ccc(C(=O)n3cccn3)o2)c(C)c1Br,17%,3,0.6%,3%
CC(OC(=O)c1ccc(S(=O)(=O)NCc2ccco2)cc1)C(=O)Nc1ncc(Cl)cc1Cl (configuration not stated),4%,4,-0.2%,0%
Cc1nn(-c2ccccc2)c(Cl)c1C(=O)OC(C)C(=O)Nc1ccc2c(c1)OCO2 (configuration not stated),6%,-2,?,0%
CCOc1cc(C(=O)NC(C)C2CCCO2)cc(OCC)c1OCC (configuration not stated),24%,-26,-3.0%,-4%
COc1cccc(CNC(=O)CN2C(=O)COc3ccc(S(=O)(=O)N4CCCCCC4)cc32)c1,0%,.,2.4%,0%&-1%
Cc1nc(SCC(=O)NCc2ccco2)c2c3c(sc2n1)CCCC3,-1%,-3,1.4%,6%
O=c1nc(-c2ccccc2)cc(-c2ccccc2)[nH]1,12%,7,-0.9%,-16%
Cc1ccc(S(=O)(=O)Nc2cccc(C(=O)NCc3cccnc3)c2)cc1F,-12%,.,0.9%,.
O=C(c1cccs1)N1CCc2c([nH]c3ccccc23)C1c1ccc(Cl)cc1 (configuration not stated),13%,1,3.0%,24%
O=C(c1ccncc1)c1ccc(NC(=O)c2cccs2)cc1,6%,5,-3.3%,-12%
CCN(CC)C(=O)[C@H]1C[C@H](CC(=O)NCc2ccc(OC)c(OC)c2)C(=O)N2CCc3c([nH]c4ccc(Cl)cc34)[C@]12C,11%,.,3.5%,.
COc1ccc(-n2nc(C(=O)NCC(=O)NCc3ccco3)c3ccccc3c2=O)cc1,1%,9,-1.0%,-3%
COCC(=O)Nc1cc(Cl)c(OC)cc1OC,-11%,2,-2.9%,-4%
CCOC(=O)c1c(N)sc(C(N)=O)c1C,-8%,10,0.3%,-14%
CC(C)(C)OC(=O)N(CCc1ccccc1)Cc1ccc(OCc2cccc(NC(=O)C3CC3)c2)cc1,2%,.,2.8%,.
COc1ccc(N2CCN(CC(O)COCc3ccccc3)CC2)cc1 (configuration not stated),7%,3,-2.6%,-2%
CN(C)CC(O)CN1C(=O)NC(C)(C)C1=O (configuration not stated),34%,6,-1.1%,3%
COc1ccccc1C(=O)COC(=O)Cc1ccccc1F,-6%,.,-0.6%,.
CNC1(C)[C@H]2CC[C@H](C2)C1(C)C (some centres not stated),11%,.,-6.3%,.
COC1C(C)=C(C)C(=O)N1Cc1ccc(F)cc1 (configuration not stated),-5%,.,-1.1%,-2%
Cc1cccc(C(=O)OCC(=O)NC(C)CCc2ccccc2)c1O (configuration not stated),0%,.,0.5%,-1%
CCn1c(CNc2ccc(OC)cc2)nnc1SCC(=O)N1CCCc2ccccc21,-9%,-10,0.1%,-9%
COC(=O)COc1ccc(-c2ccccc2)cc1C=O,2%,11,1.3%,0%
Cn1c(C(N)=O)cnc1Sc1ncc(C(F)(F)F)cc1Cl,4%,-18,-1.3%,-8%
O=C(c1cccc(S(=O)(=O)N2CCCC2)c1)N1CCOCC1,13%,.,0.2%,.
CC(C)C[C@@H](CO)N1CCN(C)CCC1=O,-8%,.,-3.3%,-1%
Cc1nnc(-c2cnn(-c3ccccc3)c2N)n1Cc1ccccc1,8%,-2,-0.9%,-9%
CCOC(=O)c1ccccc1NC(=O)CSc1nc2[nH]ncc2c(=O)[nH]1,6%,.,6.1%,.
Cc1nc(NC(=O)CSc2nnc(Cn3nnc4ccccc43)n2C)sc1C,0%,7,-0.2%,-4%
CC1(C)Cc2c(C#N)c(NCCCO)nc(-c3ccccc3)c2CO1,-2%,2,-2.8%,-15%
CC(C)Oc1ccc(OCCn2c(S(=O)(=O)O)nc3c(N)ncnc32)cc1,1%,.,0.1%,-5%
COC(=O)N(NC(=O)C(O)(CCC(C)C)CCC(C)C)c1ccccc1,-6%,-1,-1.0%,3%
CCCCOc1ccc(CSCCNC(=S)Nc2ccccc2)cc1,-6%,-1,-6.4%,24%
COc1cccc(CN2CC(C(=O)N(C)Cc3nc4ccc(F)cc4[nH]3)CCC2=O)c1 (configuration not stated),3%,.,-0.2%,-2%
COC(=O)c1sc2ncccc2c1OCc1c(Cl)cccc1Cl,-8%,4,0.4%,-15%
O=C(O)/C(=C\c1ccc(Cl)cc1)c1ccc(S(=O)(=O)N2CCCC2)s1,-5%,.,3.8%,.
Cc1nnc(SCC(=O)N2CCC(c3noc4ccc(F)cc34)CC2)s1,7%,-1,6.7%,24%
CC1(C)CC2(CCO1)C(Nc1ccccc1)=NC(=S)N2c1ccccc1 (configuration not stated),-6%,-7,5.4%,-11%
NC(=O)CSc1nnnn1-c1ccc2c(c1)OCCO2,9%,-5,-2.9%,-6%
Cc1nn(CC(=O)Nc2ccc(F)cc2)c(=O)c2ccccc12,-12%,.,-0.2%,-5%
COC(=O)C1=C(C(=O)OC)[C@@H]2Nc3ccccc3[C@@]23C[C@@H](C(=O)OC)N(C(=O)c2cc(C)oc2C)C3=N1,10%,-5,-0.6%,.
CCN(CC(=O)Nc1ccccc1OC)C(=O)CN1C(=O)NC2(CCCC2)C1=O,6%,.,3.5%,.

# Some of the entries so far, as tab-separated lines:
smiles	Rango release inh	GLA inh pH 4.5	Rango complex inh	miR-21 FLuc
COC(=O)N(NC(=O)C(O)(CCC(C)C)CCC(C)C)c1ccccc1	-6%	-1	-1.0%	3%
CCCCOc1ccc(CSCCNC(=S)Nc2ccccc2)cc1	-6%	-1	-6.4%	24%
COc1cccc(CN2CC(C(=O)N(C)Cc3nc4ccc(F)cc4[nH]3)CCC2=O)c1 (configuration not stated)	3%	.	-0.2%	-2%
COC(=O)c1sc2ncccc2c1OCc1c(Cl)cccc1Cl	-8%	4	0.4%	-15%
O=C(O)/C(=C\c1ccc(Cl)cc1)c1ccc(S(=O)(=O)N2CCCC2)s1	-5%	.	3.8%	.
Cc1nnc(SCC(=O)N2CCC(c3noc4ccc(F)cc34)CC2)s1	7%	-1	6.7%	24%
CC1(C)CC2(CCO1)C(Nc1ccccc1)=NC(=S)N2c1ccccc1 (configuration not stated)	-6%	-7	5.4%	-11%
NC(=O)CSc1nnnn1-c1ccc2c(c1)OCCO2	9%	-5	-2.9%	-6%
Cc1nn(CC(=O)Nc2ccc(F)cc2)c(=O)c2ccccc12	-12%	.	-0.2%	-5%
COC(=O)C1=C(C(=O)OC)[C@@H]2Nc3ccccc3[C@@]23C[C@@H](C(=O)OC)N(C(=O)c2cc(C)oc2C)C3=N1	10%	-5	-0.6%	.
CCN(CC(=O)Nc1ccccc1OC)C(=O)CN1C(=O)NC2(CCCC2)C1=O	6%	.	3.5%	.

# Next part:
SMILES,Rango release inh,GLA inh pH 4.5,Rango complex inh,miR-21 FLuc
Cc1ccc(S(=O)(=O)NCCCOC(=O)Nc2ccncc2)cc1,7%,2,2.3%,8%
Cc1nc([N+](=O)[O-])c(C(=O)OCc2ccccc2C#N)n1C,-3%,2,-0.4%,-1%
COC(=O)c1ccccc1NC(=O)C(C)NS(=O)(=O)c1ccc(OC)cc1 (configuration not stated),5%,-10,-5.7%,-7%
CCOC(=O)c1cc(-c2ccccc2)n(CCC(=O)N2CCN(c3ccccc3OC)CC2)c1C,-7%,3,-0.5%,?
Cc1ccccc1Cn1c(C)nc2ccccc21,17%,.,0.1%,9%
Cc1ccc(S(=O)(=O)N(C)CC(=O)NCC(c2ccco2)N(C)C)cc1 (configuration not stated),8%,.,-3.8%,.
CCN(CC)S(=O)(=O)c1ccc(S(=O)(=O)Nc2ccc3c(c2)oc2ccccc23)cc1,19%,-6,-3.9%,1%
CN(C)CCN1C(=O)C(O)=C(C(=O)c2cc3ccccc3o2)C1c1ccccn1 (configuration not stated),.,-21,.,-3%
CCOc1ccc(NC(=O)c2ccc(NS(=O)(=O)c3cccc4cccnc34)cc2)cc1,-7%,.,-0.8%,.
O=C(COC(=O)/C=C/c1ccco1)NCc1ccc(Cl)cc1,20%,.,0.0%,.
Cc1nc2c(cnn2-c2ccccc2)c(=O)n1/N=C/c1ccccc1,10%,-5,3.7%,0%
CCOC(=O)c1cc2c(N)c(C(=O)c3cc(C#N)c(SC)nc3C)sc2nc1C,?,3,?,-7%
CC(=O)Nc1cccc(C(=O)N/N=C/c2ccccc2F)c1,2%,-7,?,-60%
COc1ccc(C2C(C(=O)N3CCN(c4ccccc4F)CC3)c3ccccc3C(=O)N2C)cc1 (configuration not stated),-10%,-4,-3.6%,13%
CCn1c(C)cc2c(c1=O)C(c1ccccc1Br)C(C#N)=C(N)O2 (configuration not stated),?,9,?,-11%
CCN(Cc1ccncc1)C(=S)Nc1ccc(Cl)cc1,-1%,3,2.0%,9%
COc1ncnc(NS(=O)(=O)c2ccc(N)cc2)c1OC,2%,4,4.1%,.
COc1ccc([N+](=O)[O-])cc1NC(=O)C(C)NNC(=O)c1cccc([N+](=O)[O-])c1 (configuration not stated),3%,.,0.6%,.
Nc1nc(N)c(N=Nc2ccc(SCC(=O)O)cc2)c(=O)[nH]1,-5%,3,?,2%
COc1ccc(C(=O)N2CCN(C)C(=O)[C@@H]2C)cc1OC1CCN(C(C)C)CC1,4%,.,-2.7%,2%
CC(C)n1c(SCCCc2ccccc2)nc2c1c(=O)[nH]c(=O)n2C,0%,-3,1.9%,-10%
Cc1ccc(NC(=O)Cn2c(/C=C/c3ccccc3)nc3ccccc32)cc1C,-6%,4,-1.1%,-6%
COc1ccc(-c2nnc(SCc3nnc(-c4ccc(Cl)cc4)o3)n2-c2ccccc2)cc1,2%,-8,0.6%,-31%
COc1ccc(CCNc2ncnc3sc(C)cc23)cc1OC,-16%,.,0.6%,?
Cc1ccc(CSCC(=O)N(C)CC(=O)Nc2ccc(C)cc2)cc1,5%,.,-0.6%,.
O=C1[C@H]2[C@@H](c3ccc(Cl)cc3)N3C(=O)N(c4cccc(Cl)c4)C(=O)[C@@]3(Cc3ccc(Cl)cc3)[C@H]2C(=O)N1C1CCCCC1,4%,.,-4.0%,.
COc1ccccc1N(CCC#N)C(=O)CSc1ccc2c(c1)OCCO2,-8%,10,-0.8%,-2%
Cc1ccc(S(=O)(=O)c2nc(-c3ccccc3F)oc2N2CC(C)OC(C)C2)cc1 (configuration not stated),23%,.,0.3%,0%
O=C(Nc1ccccc1)NN1CC(=O)N(c2ccc(Cl)cc2)CC1=O,-2%,4,-1.6%,1%
CCn1c(COc2ccc(C)cc2)nc2ccccc21,-4%,-6,0.3%,-55%
CCCn1nc(NC(=O)C2CCCO2)c2cc3cccc(C)c3nc21 (configuration not stated),?,-5,?,2%
COc1ccc(N2CC(C(=O)N[C@@H](CC(C)C)C(=O)NC3CCCCC3)CC2=O)cc1 (some centres not stated),-12%,.,0.6%,-5%
O=C(C(Cl)Cl)N1CC2CCC(CC2)C1,-1%,.,-1.4%,.
CN1CCN(C(=O)/C(=C/c2ccc(F)cc2)NC(=O)c2ccccc2)CC1,20%,.,-2.3%,-3%
O=C(Nc1ccc(Cl)cc1N1CCOCC1)C1CCCO1 (configuration not stated),21%,.,-2.6%,-4%
